SARS PLP yeast – inhibitors of SARS-CoV papain-like protease in yeast; 0.19% of 330,000 active; Potency, µM (highest dose often 32.9 µM), inactives show top-dose activity, positive = growth rescue; S. cerevisiae expressing SARS-CoV PLpro, growth rescue; control for the full effect not named in the record; further: 0% is about no effect; nearly all actives have a fitted effect of over 55% in size; growth read by luminescence after 48 h
LASV entry inh – blocks Lassa virus binding to or entry into cells. Lassa virus pseudotype entry inhibition, cell reporter; control for the full effect not named in the record. Potency, µM (highest dose often 37.9 µM), without a hit: top-dose activity change, negative = inhibition, hits mostly inhibitors. 1.2% of 300,000 active; active means well fitted inhibition curve with a large enough effect; inconclusive means small, poorly fitted or top-dose-only effect, or effect the other way; inactive means flat fitted curve, though single readings scatter; tested in HEK293 cells; further: on the % scale 0 is the no-effect control and ±100 the full control effect; nearly all actives have a fitted effect of over 50% in size; luciferase read-out
StopGo reporter – FMDV 2A StopGo reporter, luciferase signal | AID 1159524 | 1.2% of 410,000 active | human cells with a luciferase reporter of 2A StopGo recoding; control for the full effect not named in the record | Potency, µM (series often up to 57.9 µM), inactives show at the top dose signal change, negative = less light; active = well fitted falling curve with a large enough effect; inconclusive = small, poorly fitted or top-dose-only effect; inactive = no such curve, though single readings can be large or run the other way; tested in HEK293T cells; further: on the % scale 0 is the no-effect control and ±100 the full control effect; nearly all actives have a fitted effect of over 45% in size; luciferase light after 4 h
NS1 function inh – influenza NS1 inhibition | S. cerevisiae slowed by influenza A NS1, growth recovery by OD600 | Potency, µM (series often up to 46.1 µM), inactives show at the top dose activity, positive = more growth | 0.4% of 270,000 active; further: actives are rising curves; nearly all actives have a fitted effect of over 50% in size
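OD600 was taken as the measure of yeast growth restored by compound in an NS1-expressing S. cerevisiae strain. Cells had been washed out of glucose medium and diluted 1:100 into galactose -URA medium, pH 6.0.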
Cruzain noTriton – inhibitors of Trypanosoma cruzi cruzain without detergent | P25779 | purified cruzain, Z-FR-AMC fluorescence, no detergent | Potency, µM, for inactives: max response, negative = inhibition, usual class: inhibitors | 2.3% of 200,000 active | AID 1476; active means well fitted curve in the direction sought with a large enough effect; inconclusive means small, poorly fitted or top-dose-only effect, or another doubt; inactive means no such curve, though single readings can be large; an effect the other way counts as inactive or inconclusive;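 further: plate controls were enzyme without inhibitor for no effect and buffer without enzyme for full effect; nearly all actives have a fitted effect of over 40% in size; top concentration of the series not given in the record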
Target sequence (P25779 123-467 limits assumed): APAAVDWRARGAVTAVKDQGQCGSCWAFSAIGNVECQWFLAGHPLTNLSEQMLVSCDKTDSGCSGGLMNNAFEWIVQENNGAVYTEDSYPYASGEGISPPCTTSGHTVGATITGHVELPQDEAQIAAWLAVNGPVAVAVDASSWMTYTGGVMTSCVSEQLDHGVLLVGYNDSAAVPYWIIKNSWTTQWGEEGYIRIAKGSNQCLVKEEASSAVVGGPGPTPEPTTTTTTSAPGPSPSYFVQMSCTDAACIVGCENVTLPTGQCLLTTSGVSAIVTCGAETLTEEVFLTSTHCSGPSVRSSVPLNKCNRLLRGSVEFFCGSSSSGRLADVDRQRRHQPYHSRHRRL
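Detergent-free condition (0.00005% Triton X-100) in acetate buffer pH 5.5 with DTT. 1.5 nM enzyme and compound were pre-mixed 15 min, then 2 uM Z-FR-AMC substrate added; reaction progress from fluorescence change between first and third reads (60 s).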
Cruzain Triton – cruzain (T. cruzi) inhibition with detergent | 0.43% of 200,000 active | AID 1478 | Potency, µM, for the others: max response, negative = inhibition, usual class: inhibitors | purified cruzain, Z-FR-AMC fluorescence, 0.01% Triton; active means well fitted curve in the direction sought with a large enough effect; inconclusive means small, poorly fitted or top-dose-only effect, or another doubt; inactive means no such curve, though single readings can be large; an effect the other way counts as inactive or inconclusive;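 further: plate controls were neutral wells for no effect and buffer without enzyme for full effect; nearly all actives have a fitted effect of over 40% in size; top concentration of the series not given in the record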
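Enzyme 1.5 nM, Z-FR-AMC 2 uM, NaOAc 100 mM pH 5.5, DTT 5 mM, Triton X-100 0.01%; 15 min RT compound preincubation; kinetic ex360/em450, 60 s delta.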
RE007 growth inh – less growth of the S. pombe RE007 Vpr strain; S. pombe RE007 Vpr strain, BacTiter-Glo ATP luminescence, 24 h; control for the full effect not named in the record; Potency, µM (doses to about 92.2 µM), without a hit: top-dose activity change, negative = less growth; 0.21% of 360,000 active; active = well fitted falling curve with a large enough effect; inconclusive = small, poorly fitted or top-dose-only effect; inactive = no such curve, though single readings can be large or run the other way;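 further: on the % scale 0 is the no-effect control and ±100 the full control effect; nearly all actives have a fitted effect of over 50% in size; the assay follows cell death caused by Vpr and the record does not say whether a fall means rescue or toxicity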
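Fission yeast strain RE007, carrying one chromosomally integrated HIV-1 vpr copy, was seeded at OD 0.01 in PMG+AL medium with 23 nL pinned compound. After 24 h at 30 °C and 99% humidity, viability was read by BacTiter-Glo luminescence.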
Marburg entry inh – Marburg virus entry inhibition; AID 540276; Marburg virus pseudotyped entry inhibition, cell reporter; control for the full effect not named in the record; about a third of the inactives were read at about 46 µM; Potency, µM (series often up to 37.8 µM), for inactives: at the top dose activity change, negative = inhibition, actives largely listed as inhibitors; 1.8% of 300,000 active; active = well fitted inhibition curve with a large enough effect; inconclusive = small, poorly fitted or top-dose-only effect, or effect the other way; inactive = flat fitted curve, though single readings scatter; tested in HEK293 cells; about a fifth of its hits are not listed in these tables; further: on the % scale 0 is the no-effect control and ±100 the full control effect; luciferase read-out
* marks the source's active call; other numbers are inactive results; ? = inconclusive; · = no result given; & = joins results of further samples; [ ] = another dose, or the depositor's remark. Unless noted, the call rests on the fitted dose curve; in most records, active means well fitted rising curve with a large enough effect; inconclusive means small, poorly fitted or top-dose-only effect; inactive means no such curve, though single readings can be large or run the other way. Potency means the concentration at half of the fitted maximal effect.

SMILES	SARS PLP yeast	LASV entry inh	StopGo reporter	NS1 function inh	Cruzain noTriton	Cruzain Triton	RE007 growth inh	Marburg entry inh
COc1cccc(-n2c(=S)[nH]c3ccccc3c2=O)c1	0%	-21%[46.1 µM]	20%	·	·	·	28%	5%[46.1 µM]
Cc1ccnc(NC2(C(F)(F)F)N=C3SCCN3C2=O)c1 (stereo not drawn)	-1%	4%	6%	·	·	·	18%	?
O=C(Cn1cc2c(n1)CCCCC2)NCc1ccccc1	-9%	·	0%	?	0%	5.3%	-5%	·
CC(=O)/C(N=Nc1c(C)n(C)n(-c2ccccc2)c1=O)=C(\C)O	0%	-26%[46.1 µM]	32%	·	·	·	-14%	-4%[46.1 µM]
CC1(C)c2cc(Cl)ccc2-n2c1cc(O)c(-c1ccccc1)c2=O	-13%	14%[46.1 µM]	-21%	-35%	·	·	7%	-2%[46.1 µM]
Cc1ccccc1C(=O)N1CCN(CCNC(=O)C(=O)Nc2ccc(Br)cc2)CC1	-1%	-12%	-2%	-23%	·	·	2%	2%
Cc1nc2ccccc2n(CC(=O)Nc2cc(Cl)cc(Cl)c2)c1=O	-1%	-23%	-28%	-4%	·	·	9%	-12%
CCC(=O)Nc1ccc(S(=O)(=O)N2CCCCC2)cc1OC	10%	-3%	10%	0%	18%	2.9%	-21%	-13%
Cc1cccc(C)c1NC(=O)CN(C)C(=O)CN1C(=O)NC2(CCCC2)C1=O	-8%	7%	-12%	·	·	·	2%	2%
O=C(NNS(=O)(=O)c1ccccc1)C1CCCCC1	2%	-2%[46.1 µM]	15%	5%	·	·	9%	-6%[46.1 µM]
O=C(O)CC(c1ccccc1)c1ccccc1	6%	0%	-23%	3%	8%	4.6%	-9%	3%
Cc1ccc(C(=O)C(C)OC(=O)Cc2n[nH]c(=O)c3ccccc23)cc1C (stereo not drawn)	-3%	8%[46.1 µM]	-17%	·	·	·	-9%	?
Cc1ccc(N2C(N)=C(C#N)C3(C(=O)N(C)c4ccccc43)C3=C2CC(C)(C)CC3=O)cc1Cl (stereo not drawn)	-6%	-2%	-17%	-4%	?	-5.5%	0%	?
COc1ccc(-c2c3c(=O)n(C)c(=O)n(C)c3cn2Cc2cccnc2)cc1	0%	22%	12%	-1%	-3%	-2.9%	-17%	19%&19%
O=C(CSc1nc(-c2ccc(F)cc2)cs1)N1CCc2ccccc21	17%	-7%	-8%	-8%	0%	0.6%	14%	-13%
COc1ccc(-c2cc3nc(C)c(CCC(=O)N4CCN(c5ccccc5)CC4)c(C)n3n2)c(OC)c1	·	19%[46.1 µM]	-18%	·	2%	-1.1%	·	2%[46.1 µM]
Nc1ccccc1C(=O)N/N=C1/C2CN3CCN(C2)CC1(Cc1ccccc1)C3	-2%	0%[46.1 µM]	-5%	·	·	·	4%	4%[46.1 µM]
COC(=O)c1cc2sccc2n1CC(=O)Nc1ccc(OC)c(OC)c1	·	·	2%	·	24%	-5.9%	·	8%[46.1 µM]
Nc1ccc2cc(Br)ccc2c1	-8%	-6%	?	·	·	·	-19%	20%[46.1 µM]
COc1ccc(C(=O)N2CC(c3ccccc3)CC2=O)cc1 (stereo not drawn)	1%	-1%	34%[activator]	0%	·	·	15%	9%
Cn1ncc(Cl)c1C(=O)N1CCC2(CC1)OCCO2	4%	·	-23%	1%	·	·	31%	·
Oc1c(Br)cc(/C=N/Nc2nncc3ccccc23)cc1Br	-2%	13%[46.1 µM]	33%[activator]	5%	·	·	12%	22%[46.1 µM]
Cn1c(=O)c(=O)n(C)c2cc(S(=O)(=O)N3CCCC3C(=O)Nc3ccc(F)cc3)ccc21 (stereo not drawn)	3%	6%[46.1 µM]	-11%&-3%	-11%	-1%	-3.5%	-3%	?
Nc1nc(SCC(=O)NC2CCCC2)[nH]c(=O)c1-c1ccccc1	-1%	·	·	9%	-2%	5.3%	·	·
CCNc1nc(Oc2ccc(=O)[nH]n2)nc(N2CCOCC2)n1	1%	0%	31%	1%	6%	5.3%	9%	?
CCOC(=O)c1cc(-c2cccs2)nc2c1c(C)nn2-c1ccccn1	1%	-14%	-14%	·	·	·	-4%	?
Cc1ccc(-c2nc(CS(=O)(=O)CC(=O)NCc3ccccc3Cl)c(C)o2)cc1	·	10%[46.1 µM]	-8%	·	-3%	-3.3%	·	17%[46.1 µM]
CCN(CC)C(=O)CSc1nnc2ccc3ccccc3n12	·	16%[46.1 µM]	8%	·	-2%	-3.2%	·	3%[46.1 µM]
O=C(CNC(=O)c1ccccc1)NCC(=O)OCc1ccc(Cl)cc1	3%	-14%	17%	-4%	-2%	-1.5%	26%	1%
CC(C)CNC(=O)COC(=O)c1ccc([N+](=O)[O-])cc1Cl	-18%	12%	23%	-14%	-10%	0.4%	0%	2%
O=C(NN=C1CCCC1)C1COc2ccccc2O1 (stereo not drawn)	-1%	-2%[46.1 µM]	-7%	·	·	·	0%	?
CN(CCCCCNC(=O)/C=N/O)Cc1ccccc1	6%	·	·	-9%	-10%	-1.3%	·	·
Cc1ccc(NCc2nnc(SCC(=O)Nc3cccc(O)c3)n2CC2CCCO2)c(C)c1 (stereo not drawn)	-5%	-19%	-11%	1%	12%	-0.2%	-6%	?
O=C(Nc1ccccc1)C1CCN(C(=O)c2ccco2)CC1	3%	-15%	3%	6%	·	·	1%	-4%[46.1 µM]
Cc1cc(S(=O)(=O)N2CCOCC2)ccc1OCC(=O)Nc1cccc(C(F)(F)F)c1	0%	-15%[46.1 µM]	2%	-14%	·	·	9%	-14%[46.1 µM]
N#CCN1C(=O)C2CCCN2c2ccc(S(=O)(=O)N3CCOCC3)cc21 (stereo not drawn)	1%	12%[46.1 µM]	-2%	21%	·	·	-7%	0%[46.1 µM]
COc1ccc(CNC(=O)c2ccc3c(c2)N(Cc2ccccc2F)C(=O)c2ccccc2S3(=O)=O)cc1	·	-2%[46.1 µM]	14%	·	25µM*	-1.5%	·	-28%[46.1 µM]
O=C(c1ccc(CSc2nc3ccncc3[nH]2)cc1)N1CCCCCC1	0%	·	?	2%	·	·	-15%	·
CCc1ccc(CN(Cc2ccco2)C(=O)COc2ccccc2Cl)cc1	·	-10%[46.1 µM]	-19%	·	-18%	-9.9%	·	?
O=C(COc1ccc(/C=N/NS(=O)(=O)c2ccccc2)cc1)Nc1cccc(Cl)c1	-16%	1%	48%[activator]	-2%	-14%	-5.4%	4%	-28%
Cc1nc(CSc2nc3[nH]ncc3c(=O)n2-c2ccccc2)cs1	-4%	-22%	-15%	-8%	-8%	-0.8%	16%	?
COCCn1c(SCC(=O)c2ccccc2)nc2ccccc2c1=O	-3%	?	-28%	-4%	·	·	3%	?
COc1ccc([C@H]2C=C(C(=O)O)O[C@@H](OCc3ccc(CO)cc3)C2)cc1	0%	·	7%	-37%	·	·	9%	·
C(=NC12CN3CN(CN(C3)C1)C2)c1cccs1	1%	9%	·	17%	2%	0.5%	-2%	26%
CC(=O)N1CCN(C(=O)c2ccc(S(=O)(=O)Nc3ccccc3Cl)cc2)CC1	0%	0%	-7%	·	·	·	4%	-24%[46.1 µM]
CCC(=O)O[C@H]1CC[C@H]2[C@@H]3CCC4=CC(=O)CC[C@]4(C)[C@H]3CC[C@]12C	·	·	-25%	·	-13%	-9.5%	11%	·
CN(C(=O)c1ccco1)c1nc(-c2ccc(Cl)cc2)cs1	1%	·	0%	1%	·	·	-11%	·
COc1cc2oc(=O)cc(-c3ccc(-c4ccc(C)cc4)cc3)c2c(OC)c1OC	-5%	·	?	·	3%	3.1%	1%	·
CCCN(CCC)C(=O)c1c(NC(=O)CC)sc2c1CCCCC2	-9%	?	-2%	-5%	14%	0.2%	-11%	?
Cc1ccc(SCC(=O)NNC(=O)c2ccccc2)cc1C	1%	17%	15%	-1%	·	·	-11%	-8%[46.1 µM]
COc1ccc(CCNC(=O)Nc2cccs2)c(OC)c1	-1%	·	1%	1%	·	·	-5%	·
O=C(N/N=C\c1cn[nH]c1-c1ccc(Cl)cc1)c1cccs1	-2%	·	4%	4%	·	·	-9%	·
COc1ccc(COC(=O)c2cccc(S(=O)(=O)N3CCN(C(C)=O)CC3)c2)cc1F	0%	-30%	-20%	·	·	·	8%	?
O=C1NC(=O)C(Nc2ccc(Cl)c(Cl)c2)C(=O)N1	·	-6%	-9%	·	·	·	1%	5%
COc1ccc(S(=O)(=O)N2CCN(S(=O)(=O)c3ccc(C(F)(F)F)cc3)CC2)cc1C	1%	4%	-3%	0%	?	4.4%	-7%	6%&-19%
CC(=O)N1CCCc2cc(S(=O)(=O)CCC(=O)Nc3cccc(C)c3C)ccc21	8%	?	25%	4%	·	·	4%	0%[46.1 µM]
COc1ccc(OC)c(N(CC(=O)N2CCC(C)CC2)S(=O)(=O)c2ccccc2)c1	-1%	-15%	74%[activator]	-15%	2%	-4.0%	16%	1%
c1ccc(CCNCc2cccs2)nc1	·	1%	-4%	·	·	·	-5%	35%
CCOc1ccc2nc(Cl)c(C3CC(c4ccc(OC)cc4)=NN3S(C)(=O)=O)cc2c1 (stereo not drawn)	·	-2%[46.1 µM]	21%	·	6%	7.1%	·	?
CCOc1ccc(NC(=S)Nc2ccccc2C2CC2)cc1	0%	17%[46.1 µM]	-8%	-11%	·	·	-22%	0%[46.1 µM]
The list goes on.
SMILES	SARS PLP yeast	LASV entry inh	StopGo reporter	NS1 function inh	Cruzain noTriton	Cruzain Triton	RE007 growth inh	Marburg entry inh
CCOC(=O)/C=C1\SCC(=O)N1CC(=O)Nc1ccccc1OC(F)F	0%	6%	-1%	-3%	-3%	7.3%	10%	-5%
CC(=O)c1cccc(NC(=O)NCc2ccccn2)c1	-1%	?	-1%	-2%	-2%	6.5%	6%	-7%
Nc1cc(=O)nc(SCC(=O)Nc2ccccc2Cl)n1-c1ccccc1	4%	13%	-6%	·	·	·	21%	18%[46.1 µM]
C(=N\Nc1ccc(-n2ccnc2)nn1)/c1ccccc1	-4%	3%	20%	1%	-26%	-1.7%	5%	-7%
COc1ccc(C(=O)Nc2ccccc2C(=O)Nc2cccnc2)cc1	-6%	17%[46.1 µM]	2%	-2%	·	·	?	?

Assay outcomes: PubChem, National Center for Advancing Translational Sciences (NCATS)
